VDR inh: inhibitors of human vitamin D receptor; P11473; VDR-SRC2-3 peptide fluorescence polarization, 2 h; Potency, µM, for inactives: max response, negative = inhibition, actives largely listed as inhibitors; hit rate 0.93% among 400,000; active = well fitted inhibition curve with a large enough effect; inconclusive = small, poorly fitted or top-dose-only effect, or another doubt; inactive = no such curve, though single readings can be large or run the other way; also: series mostly up to about 120 µM
Target sequence (P11473 whole entry, looked up): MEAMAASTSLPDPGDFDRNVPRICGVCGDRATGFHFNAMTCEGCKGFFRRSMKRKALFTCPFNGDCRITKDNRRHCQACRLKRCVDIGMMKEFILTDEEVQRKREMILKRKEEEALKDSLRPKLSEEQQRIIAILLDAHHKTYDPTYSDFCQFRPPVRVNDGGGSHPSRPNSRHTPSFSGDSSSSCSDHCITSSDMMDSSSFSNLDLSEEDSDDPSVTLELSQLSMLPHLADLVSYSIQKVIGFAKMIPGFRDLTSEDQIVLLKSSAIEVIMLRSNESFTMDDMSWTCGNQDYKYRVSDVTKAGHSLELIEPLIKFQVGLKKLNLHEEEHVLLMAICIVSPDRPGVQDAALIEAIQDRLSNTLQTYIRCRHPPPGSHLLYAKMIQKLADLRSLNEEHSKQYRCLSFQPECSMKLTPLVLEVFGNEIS
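The screen uses fluorescence polarization to detect compounds that interfere with recruitment of the SRC2-3 coactivator peptide to VDR; plates are read after 2 h at room temperature.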
* marks the source's active call; other numbers are inactive results; ? = inconclusive; & = joins results of further samples. % is scaled to controls: 0 for no effect and ±100 for the full control effect; potency is read from the fitted curve at half-maximal effect.

SMILES	VDR inh
Cc1ccc(CNc2ccc(N3C(=O)CC(C)C3=O)cc2[N+](=O)[O-])cc1 (configuration not stated)	2%
COc1ccc(N2CCN(CC(=O)c3c(C)n(C)c4ccc(OC)cc34)CC2)cc1	-2%
CCOC(=O)c1nc(Nc2ccc(C(=O)O)cc2)c2ccccc2n1	8%
Cc1nn(C)c(C)c1NC(=O)c1ccc(S(=O)(=O)N(C)C)cc1	-16%
O=C(CN1C(=O)NC2(CCCC2)C1=O)OCCOc1ccccc1Cl	0%
COc1ccc(C(CNC(=O)c2cc(S(=O)(=O)Nc3cccc(C)c3)ccc2C)N2CCOCC2)cc1 (configuration not stated)	-14%
COc1cccc(-c2nn(C)c3sc(C(=O)NCc4cc(OC)ccc4OC)cc23)c1	-5%
COC(=O)c1cccc(NC(=O)c2cnccn2)c1	7%
COc1cc(CCC(O)CC(=O)CCc2ccccc2)ccc1O (configuration not stated)	-13%
O=C(COc1ccc(Cl)cc1Cl)Nc1ccc(Cl)cn1	-7%
Cc1ccc(OCc2cnc(Cl)s2)c(C)c1	-13%
N/C(=N\OC(=O)COc1ccc(Br)cc1)c1ccncc1	10%
Cc1nc2ccccc2c(=O)n1/N=C/c1ccccc1	-8%
CCc1ccc2c(c1)c1nc(C)sc1n2CC(=O)OC	-2%
C=CCn1c(SCC(=O)c2ccc(Br)cc2)nnc1C(CC(C)C)NC(=O)c1cccs1 (configuration not stated)	?
O=C(O)c1cnc(-c2ccccc2)nc1-c1ccccc1	1%
COc1ccc(Cn2nnnc2C(c2cccs2)N2CCN(c3ccc([N+](=O)[O-])cc3)CC2)cc1 (configuration not stated)	-1%
Cc1ccc(S(=O)(=O)c2c(N)n(CCCO)c3nc4ccccc4nc23)cc1	-1%
COc1cccc(OC)c1C(=O)N1CCN(Cc2ccccc2C(F)(F)F)CC1	-7%
CC1=C(C#N)C(C)C2=C(CC(C)(C)CC2=O)N1 (configuration not stated)	-4%
Cc1ccc(S(=O)(=O)Nc2cc3c(C(=O)OCc4ccccc4)c(C)oc3c3ccccc23)c(C)c1	-9%
COc1ccc2c(=O)c(OC)c(-c3ccccc3)oc2c1	?
COc1cn(-c2ccccc2)nc1C(=O)Nc1ccc(C)cc1Cl	26%
COC(=O)Cn1cc(C(=O)c2cccs2)c2ccccc21	9%
CC(=O)N1CCN(c2ccc(Oc3ccc([N+](=O)[O-])c(C(F)(F)F)c3)cc2)CC1	-10%
COc1cc(NC(=O)CN2C(=O)COc3ccc(S(=O)(=O)N4CCCCC4)cc32)cc(OC)c1	-20%&9%
COc1ccc(CCC(=O)OCc2csc(CC(=O)Nc3ccccc3C)n2)cc1	-5%
COC(=O)c1c[nH]n2c(=O)c(Cc3ccc(F)cc3Cl)c(C)nc12	16%
CCN(CC)CCNC(=O)c1ccc(NC(=O)c2cccc(S(=O)(=O)N3CCCCCC3)c2)cc1	-22%
O=C(NCc1ccc2c(c1)OCO2)c1ccc(N2CCCC2=O)cc1	10%
Cc1ccc(C(=O)CCC(=O)N2CCN(c3ccccc3O)CC2)cc1	1%
O=c1[nH]nc(SCCS(=O)(=O)c2ccc(F)cc2)n1-c1ccccc1C(F)(F)F	-13%
Cn1nnnc1SCc1ccc(C(=O)Nc2ccccc2F)cc1	18%
O=C(CNCc1ccc(Cl)cc1)Nc1cc(S(=O)(=O)N2CCCC2)ccc1Cl	-5%
COc1ccccc1-c1nc(NCCNC(C)=O)c2ccccc2n1	-6%
Cc1cccn2c(CNCC(C)Oc3cccnc3)c(C(=O)N3CCOCC3)nc12 (configuration not stated)	-12%
COc1ccccc1NS(=O)(=O)c1cc([N+](=O)[O-])ccc1N/N=C/c1c[nH]c2ccccc12	3%
O=C(Nc1ccncc1)c1ccc(Cl)cc1	12%
CCc1c(-c2n[nH]c(=S)n2Cc2ccccc2)csc1C	-9%
CCc1ccc(NC(=O)CSc2nc3c(sc4ccccc43)c(=O)n2CCCOC(C)C)cc1	17%
CCc1ccccc1NC(=S)N(Cc1cccs1)C1CCCC1	-27%
Cc1ccc(C)c(NC(=O)CSc2nc3ccc(N4C(=O)c5ccccc5C4=O)cc3s2)c1	-24%
O=C(O)COc1ccc(C(=O)Cc2ccc3c(c2)OCCCO3)c(O)c1	6%
Cc1scc(C(=O)NNC(=O)CCC(=O)O)c1C	20%
COc1ccc(C(=O)NCCn2cc(SCC(=O)NCC3CCCO3)c3ccccc32)cc1OC (configuration not stated)	-17%
CCN(CC)CCNC(=S)NC(=O)c1cn(-c2ccccc2)nc1-c1ccc(OC)cc1	18%
COc1ccc2cccc(N3CCN(CCNC(=O)c4ccc(F)cc4)CC3)c2c1	?
CCOc1ccc2c(c1)-c1c(ssc1=S)C(C)(C)N2	8%
CCN(Cc1ccccc1)S(=O)(=O)c1ccc2c(c1)NC(=O)CS2	-6%
O=C(CNc1cccc(S(=O)(=O)N2CCCCCC2)c1)Nc1cccc([N+](=O)[O-])c1	6%
Cc1cccc(N2CCN(C(c3ccccc3)c3nnnn3CC3CCCO3)CC2)c1C (configuration not stated)	-4%
CCCCN(C(=O)C(C)Oc1ccc(Br)cc1)c1c(N)n(Cc2ccccc2)c(=O)[nH]c1=O (configuration not stated)	1%
COc1ccc2cc(C#N)c(SCC(=O)N3CCCC3)nc2c1	-2%
Cc1ccccc1NC(=S)N(Cc1ccccc1)Cc1cccnc1	-6%
Cc1sc2ncnc(NCc3cccs3)c2c1C	-9%
O=C(c1cccnc1)N1CCN(S(=O)(=O)c2ccc(Cl)cc2)CC1	4%
C=CC[C@H](CC(=O)NCCO)C(=O)NCCOC(=O)[C@@H](CC=C)CC(=O)OC(C)(C)C	6%
CCN(CC)Cc1ccc(OC)c(Cl)c1	-18%
COc1ccc(/C=C/C(=O)OCC(=O)c2c(C)[nH]c3ccccc23)cc1OC	-8%
COc1ccc(C2=NO[C@@H]3[C@@H]4C[C@@H]([C@H]5C(=O)N(c6ccc7c(c6)OCO7)C(=O)[C@@H]45)[C@H]23)cc1OC	-2%

Carrying on:
SMILES	VDR inh
CCOC(=O)c1[nH]c2ccccc2c1NC(=O)C(CC)CC	-22%
CC1Cc2ccccc2N1C(=O)Cc1cccs1 (configuration not stated)	2%
CCOc1ccc2nc(NC(=O)c3nc(SCc4ccccc4F)ncc3Cl)sc2c1	11%
NC(=O)c1ccsc1NC(=O)COC(=O)/C=C/c1ccccc1	8%
Cc1nc2sc(C(c3cccc(F)c3)N3CCOCC3)c(O)n2n1 (configuration not stated)	3%
COc1ccc(OC)c(NC(=O)C(=O)NCc2ccncc2)c1	-4%
CCCNC(=O)CN1C(=O)NC(CCSC)C1=O (configuration not stated)	-15%
COc1ccccc1NS(=O)(=O)c1cc(NC(=O)C(C)NC(N)=O)ccc1N1CCCC1 (configuration not stated)	?
C=CCN1C=C2C(=O)C(C)(OC(=O)CCC(=O)OC)C(=O)C=C2C=C1C1CC1 (configuration not stated)	-21%
CC(C)C(=O)Nc1cccc(C(=O)Nc2cc([N+](=O)[O-])ccc2Cl)c1	-11%
Cc1cccc(N2CCN(c3nc4ccccc4c4nnc(C)n34)CC2)c1C	-4%
CCC(=O)Nc1ccc(/C(C)=N/NC(=O)c2c(-c3ccccc3Cl)noc2C)cc1	7%
Cc1ccc(NC(=O)COC(=O)c2nn(-c3ccc(Cl)cc3)cc2O)cc1	-13%
Cc1ccc(CNC(=O)C2CCC(=O)N(CCc3ccc(Cl)cc3)C2)cc1 (configuration not stated)	5%
CCc1ccc(-c2nc(-c3cc4ccccc4oc3=O)sc2C)cc1	6%
COc1ccc(N(CC(=O)Nc2cccc(C(C)=O)c2)S(C)(=O)=O)cc1OC	-22%
C[C@H](CO)N1C[C@H](C)[C@@H](CN(C)C(=O)Nc2ccc(C(F)(F)F)cc2)Oc2c(NC(=O)C3CCCCC3)cccc2C1=O	9%
COc1ccc(NC(=O)Cn2cc(S(=O)(=O)Cc3ccccc3)c3ccccc32)c(OC)c1	-12%
CCOc1ccc2c(c1)C(=O)C(=O)N2CC1COc2ccccc2O1 (configuration not stated)	?
c1cncc(-c2cccnc2)c1	9%
CC(C)(C)c1ccc(NC(=O)Nc2ccc(OCC(=O)N3CCOCC3)cc2)cc1	16%
Cc1ccccc1OCC(=O)NNC(=O)C1CC(=O)N(c2ccc3c(c2)OCCO3)C1 (configuration not stated)	14%
COc1ccccc1-c1cc(C(=O)NC2CCCC2)no1	6%
O=C1CCC(C2CCc3cc(O)ccc3C2)C1 (configuration not stated)	4%
COc1ccc(CN2CCC(C(=O)NCCc3ccc(OC)c(OC)c3)CC2)c(OC)c1	13%
CCCc1nnc(SCC(=O)NC2CC2)n1C	10%
COc1cc(NS(=O)(=O)c2ccc(NC(=O)COc3ccc(C)cc3C)cc2)nc(OC)n1	2%
CC(C)C1C(=O)CC(c2ccccc2)NC1c1ccccc1 (configuration not stated)	-3%
COc1ccccc1N1CCN(C(=O)C2CCN(S(=O)(=O)Cc3ccccc3)CC2)CC1	9%
CCOc1cc(N2CCOCC2)c(OCC)cc1NC(=O)CN1C(=O)NC(Cc2ccccc2)C1=O (configuration not stated)	15%
O=S(=O)(Cc1ccc(Cl)cc1)Nc1ccc(Cl)cn1	-3%
c1ccc(-c2csc(-c3cccnc3)n2)cc1	15%
COc1ccc(CCN(C)C(=O)CNC(=O)c2ccccc2F)cc1OC	1%
CCOC(=O)N1CCN(C(=O)CSc2ncnc3sccc23)CC1	-6%
CC1C(=O)C(C)C(c2ccccc2)N(N=O)C1c1ccccc1 (configuration not stated)	-15%
O=C(O)c1cccc(NC(=O)c2cc(-c3cccc(Cl)c3)nc3ccccc23)c1	-14%
COc1ccc(OCC#CCn2ccnc2)cc1	2%
C=CCN1C(=O)/C(=C/c2cccs2)S/C1=N\S(=O)(=O)c1ccc(F)cc1	-6%
CCCCc1cc(=O)oc2cc(OC(C)C(=O)NCCN3CCOCC3)c(Cl)cc12 (configuration not stated)	16%
Fc1ccc2nc3c(nc2c1)CCCC3	11%
N#Cc1ccc(CSc2nnc(-c3cccnc3)n2-c2ccccc2)cc1	-2%
NS(=O)(=O)c1ccc(CCNS(=O)(=O)c2cccc3nsnc23)cc1	9%
COc1ccc(COC(=O)C2CCN(S(=O)(=O)c3ccc(C)cc3)CC2)cc1	-19%
COc1ccc2c(c1)C(C)=CC(C)(C)N2C(=O)CSc1nnc(-c2ccc(C)cc2)o1	-1%
Cc1cc(C)nc(Sc2nc(Nc3ccccc3)nc(Sc3nc(C)cc(C)n3)n2)n1	-2%
CCN(CC)S(=O)(=O)c1ccc(NS(=O)(=O)c2cccs2)cc1	4%
CCN(CC)C(=O)CSc1nc2sc3c(c2c(=O)n1-c1ccc(C)cc1)CC(C)(C)SC3	-11%
COc1ccc2c(c1)c(CC(=O)Nc1c(C)cccc1C)c(C)n2C(=O)c1ccc(Cl)cc1	5%
Cc1cc(C)nc(NC(=NCCc2c[nH]c3ccccc23)NC(=O)c2ccco2)n1	14%
O=C(c1ccccc1)N1CCN2C(=O)c3ccccc3C12c1ccc(Cl)cc1 (configuration not stated)	10%
Cc1ccc(NC(=O)CSc2nnc(Cn3c(=O)sc4ccccc43)n2C)cc1Cl	-14%
N#Cc1ccsc1NC(=O)c1ccccn1	-1%
COc1ccc(CNC(=O)COc2ccc(S(=O)(=O)N3CCOCC3)cc2)cc1	-16%
Cn1c(=O)c2c(ncn2CC(=O)OCCCC(=O)c2ccc(Br)cc2)n(C)c1=O	-1%
N#Cc1nc(-c2cccc3ccccc23)oc1N1CCCCC1	16%
CC(=O)c1ccc(-c2c(C)cc3oc(=O)cc(-c4ccccc4)c3c2C)cc1	?
O=[N+]([O-])c1ccc(-c2cn(-c3ccc(Cl)cc3)c(=S)[nH]2)cc1	-6%
COC(=O)c1c(NC(=O)C(=O)N2CCCC2)sc2c1CC(C)(C)OC2	1%
CN(C)S(=O)(=O)c1cccc(COC(=O)Cc2c(F)cccc2Cl)c1	16%
COc1ccc(CCNc2nc(-c3ccncc3)cs2)cc1OC	-29%

7 compounds from above, arranged by count of non-hydrogen atoms, largest number first:
SMILES	VDR inh
CCN(CC)C(=O)CSc1nc2sc3c(c2c(=O)n1-c1ccc(C)cc1)CC(C)(C)SC3	-11%
COc1ccc2c(c1)C(C)=CC(C)(C)N2C(=O)CSc1nnc(-c2ccc(C)cc2)o1	-1%
Cn1c(=O)c2c(ncn2CC(=O)OCCCC(=O)c2ccc(Br)cc2)n(C)c1=O	-1%
COc1ccc(COC(=O)C2CCN(S(=O)(=O)c3ccc(C)cc3)CC2)cc1	-19%
COC(=O)c1c(NC(=O)C(=O)N2CCCC2)sc2c1CC(C)(C)OC2	1%
O=[N+]([O-])c1ccc(-c2cn(-c3ccc(Cl)cc3)c(=S)[nH]2)cc1	-6%
N#Cc1ccsc1NC(=O)c1ccccn1	-1%

The listing picks up, repeating the 2 entries before the break.
SMILES	VDR inh
CN(C)S(=O)(=O)c1cccc(COC(=O)Cc2c(F)cccc2Cl)c1	16%
COc1ccc(CCNc2nc(-c3ccncc3)cs2)cc1OC	-29%
COCCCNC(=O)CCn1nc(-c2ccc(Cl)cc2)ccc1=O	7%
Cc1cc2c(cc(C(=O)OC(C)C(=O)NCc3ccc(F)cc3)n2C)o1 (configuration not stated)	-8%
Cc1nn(Cc2c(Cl)cccc2Cl)c(C)c1NC(=O)c1cn(-c2ccccc2)nc1-c1ccccc1	9%
Cc1ccc(/C=C(/NC(=O)c2ccccc2)C(=O)NC(Cc2c[nH]c3ccccc23)C(=O)O)cc1 (configuration not stated)	6%
CCOC(=O)CCCNC(=O)c1cncc(Br)c1	11%
COC(=O)N/N=C/c1ccc(-c2ccccc2Cl)o1	1%
NC(=O)c1c(NC(=O)c2ccco2)sc2c1CCC2	15%

Some of these compounds in order of the VDR inh value, smallest number first:
SMILES	VDR inh
Cc1cc2c(cc(C(=O)OC(C)C(=O)NCc3ccc(F)cc3)n2C)o1 (configuration not stated)	-8%
COC(=O)N/N=C/c1ccc(-c2ccccc2Cl)o1	1%
Cc1ccc(/C=C(/NC(=O)c2ccccc2)C(=O)NC(Cc2c[nH]c3ccccc23)C(=O)O)cc1 (configuration not stated)	6%
Cc1nn(Cc2c(Cl)cccc2Cl)c(C)c1NC(=O)c1cn(-c2ccccc2)nc1-c1ccccc1	9%
CCOC(=O)CCCNC(=O)c1cncc(Br)c1	11%
NC(=O)c1c(NC(=O)c2ccco2)sc2c1CCC2	15%

This is a subset, so the mix of outcomes need not match the whole.
